# High-throughput results: PubChem, Broad Institute
# AF4-AF9 inh: blocks AF4 peptide binding to human AF9; AID 651704; AlphaScreen, biotin-AF4 peptide binding to FLAG-AF9; inhibition, % at 10 µM; P42568; 350,000 tested, 0.47% active;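 active = every replicate reaching a set inhibition limit, whatever the replicate mean, cut at about 25% in these data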;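 note: 0% = plate neutral control median and 100% = total signal loss; the record names both 10 and 1 µM as test concentration; the first replicate is given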
# Target sequence (P42568 whole entry, looked up): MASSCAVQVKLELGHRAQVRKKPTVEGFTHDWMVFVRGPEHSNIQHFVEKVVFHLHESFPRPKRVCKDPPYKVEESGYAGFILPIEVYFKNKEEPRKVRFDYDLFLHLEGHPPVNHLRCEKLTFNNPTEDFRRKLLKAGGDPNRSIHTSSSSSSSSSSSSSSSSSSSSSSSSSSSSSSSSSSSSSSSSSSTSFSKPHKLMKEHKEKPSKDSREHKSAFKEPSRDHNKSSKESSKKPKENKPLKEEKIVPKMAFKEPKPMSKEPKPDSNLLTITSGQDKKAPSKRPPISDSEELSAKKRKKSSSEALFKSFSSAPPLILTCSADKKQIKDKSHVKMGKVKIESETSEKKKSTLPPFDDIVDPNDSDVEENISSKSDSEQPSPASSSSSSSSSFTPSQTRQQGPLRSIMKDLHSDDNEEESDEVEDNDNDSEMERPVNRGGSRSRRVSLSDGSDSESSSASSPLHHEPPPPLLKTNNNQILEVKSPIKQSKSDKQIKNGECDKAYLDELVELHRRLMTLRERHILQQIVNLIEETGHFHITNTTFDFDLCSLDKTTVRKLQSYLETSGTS
# rRNA inh HTS: inhibits bacterial ribosomal RNA function over humanized ribosomes; E. coli WT GFP vs humanized-ribosome RFP mutants, fluorescence, 24 h; hits give low values; DMSO median 0, no signal -100; GFP signal change (wild-type ribosome), % (test concentration not listed); 350,000 tested, 1.6% active;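 active = significant combined selectivity score with lowered wild-type GFP, culture density cut under 30%, mutant RFP and density less affected; inactive = any of these conditions unmet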; note: one replicate is shown; some compounds called inactive have numbers as strong as hits
# FGF22 binding: shifts melting point of recombinant human FGF22. 340,000 tested, 1.5% active. AID 651658. calls only at 9.99 µM. recombinant FGF22 thermal shift, SYPRO orange fluorescence; percent of sucrose octasulfate shift, DMSO zero. Q9HCT0;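 active = melting point raised past a set limit in the mean and every replicate; three in four hits are not shown here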
# Target sequence (Q9HCT0 whole entry, looked up): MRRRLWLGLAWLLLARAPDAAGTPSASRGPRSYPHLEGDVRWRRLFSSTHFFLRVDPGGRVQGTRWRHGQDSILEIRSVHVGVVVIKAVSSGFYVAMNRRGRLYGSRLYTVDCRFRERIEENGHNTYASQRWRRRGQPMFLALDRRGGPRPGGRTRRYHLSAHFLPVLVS
# rRNA inh HTS OD600: second read-out of rRNA inh HTS, no call of its own (marks repeat the call); OD600 change, %; measured here: OD600 growth;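 optical density of the mix in the first replicate; 0 = DMSO median and -100 = no signal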
# rRNA inh HTS RFP: second read-out of rRNA inh HTS, no call of its own (marks repeat the call); RFP signal change, %; measured here: RFP humanized mutant strains;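 first replicate; 0 = DMSO median and -100 = no signal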
# An asterisk follows results filed as active; i = inactive. Only part of the results is shown (hit frequency here may not be typical).
cpd	AF4-AF9 inh	rRNA inh HTS	rRNA inh HTS OD600	rRNA inh HTS RFP	FGF22 binding	SMILES
1	0.0	-2.0	7.8	3.6	i	O=S(=O)(c1ccccc1)N1CC[C@@H]2[C@@H](CO)Nc3ccc(C#Cc4ccccc4F)cc3[C@@H]21
2	-8.8	-2.2	-9.9	-1.0	i	C[C@H]1CN([C@@H](C)CO)C(=O)Cc2cc(NC(=O)C3CCCCC3)ccc2O[C@H]1CN(C)S(=O)(=O)c1ccc(F)cc1
3	1.5	1.8	5.3	-2.4	i	O=C(NC1CCC1)[C@H]1[C@H](CO)[C@H]2Cn3c(ccc(-c4ccc(F)cc4)c3=O)[C@@H]1N2
4	-4.0	3.0	0.2	-1.5	i	C[C@H]1CN([C@@H](C)CO)C(=O)c2cccc(NC(=O)C3CCOCC3)c2O[C@H]1CN(C)CC1CC1
5	-2.0	-18.1	-42.0	10.7	i	C/C=C/c1ccc([C@H]2[C@H]3CN(S(=O)(=O)c4cccs4)CCCCN3[C@H]2CO)cc1
6	1.3	-2.2	-7.4	-1.7	i	C[C@H]1CN([C@@H](C)CO)C(=O)c2cccc(NS(=O)(=O)c3ccc(F)cc3)c2O[C@H]1CN(C)S(=O)(=O)c1ccc(Cl)cc1
7	-0.9	7.6	-0.4	-1.2	i	C[C@@H]1CN([C@@H](C)CO)C(=O)Cc2cc(NS(=O)(=O)c3cn(C)cn3)ccc2O[C@@H]1CN(C)Cc1ccncc1
8	-0.4	-1.6	-14.1	4.1	i	COc1ccccc1C#Cc1ccc2c(c1)O[C@@H](CN(C)Cc1cncnc1)[C@@H](C)CN([C@H](C)CO)S2(=O)=O
9	0.6	-13.8	-42.2	3.3	i	Cc1csc(-c2nc3ccccc3n2C(C(=O)Nc2c(C)cccc2C)C2CC2)c1 (configuration not stated)
10	-2.8	20.6	11.1	0.3	i	Cc1nc2ccc(C(=O)NCCCn3ccnc3)cn2c1N(C)C(=O)CCc1ccccc1
11	-4.9	1.1	1.1	-0.6	i	CC(C)NC(=O)Nc1ccc2c(c1)C(=O)N([C@H](C)CO)C[C@H](C)[C@@H](CN(C)CC1CCCCC1)OCCCC[C@H](C)O2
12	1.7	-26.6*	-21.0*	5.2*	i	COc1ccc(NC(=O)O[C@@H](C)[C@@H]2CN3CCc4c([nH]c5ccc(-c6ccc(OC)cc6)cc45)[C@@H]3C[C@@H]2N(C)C(=O)Nc2ccc(OC)cc2)cc1
13	-2.0	2.8	7.4	1.3	i	Cc1ccc(S(=O)(=O)N(C)C[C@H]2OCCCC[C@@H](C)Oc3ccc(NS(=O)(=O)c4c(C)noc4C)cc3C(=O)N([C@H](C)CO)C[C@@H]2C)cc1
14	-0.5	9.5	12.3	-0.1	i	O=C(NCC1CC1)c1ccc2sc([C@H]3C[C@H](O)[C@@H](CO)O3)nc2c1
15	-0.7	1.2	-3.0	-0.8	i	C[C@@H]1CCCCO[C@@H](CN(C)C(=O)NC2CCCCC2)[C@H](C)CN([C@H](C)CO)C(=O)c2cc(NC(=O)Nc3ccc(F)cc3)ccc2O1
16	8.2	-5.8	-34.8	16.6	i	O=C(C[C@H]1CC[C@H]2[C@@H](COC[C@H](O)CN2Cc2ccc(Oc3ccccc3)cc2)O1)Nc1nccs1
17	4.0	2.4	10.1	1.2	i	CCCN(C)C[C@H]1OCCCC[C@@H](C)Oc2ccc(NS(=O)(=O)c3cccs3)cc2C(=O)N([C@H](C)CO)C[C@@H]1C
18	-1.7	1.6	4.1	-0.6	i	CO[C@@H]1CN(C)C(=O)c2cc(NS(C)(=O)=O)ccc2OC[C@@H](C)N(C(=O)C2CC2)C[C@H]1C
19	-5.2	5.6	6.0	0.8	i	C[C@@H]1CN([C@@H](C)CO)C(=O)c2cc(-c3cccc(C#N)c3)cnc2O[C@@H]1CN(C)C(=O)c1ccccn1
20	3.3	0.6	1.8	2.4	i	COc1ccc(NC(=O)C[C@H]2C(=O)N(CCc3ccccc3)C[C@@H]2CSC)cc1
21	1.3	3.2	6.8	-3.0	i	CC1(c2ccccc2)NC(=O)N(CC(=O)N2CCc3ccccc32)C1=O (configuration not stated)
22	0.3	-0.7	-31.5	22.4	i	C[C@H](CO)N1C[C@H](C)[C@@H](CN(C)Cc2ccc(C(F)(F)F)cc2)Oc2ccc(NS(=O)(=O)c3ccc(F)cc3)cc2C1=O
23	8.0	1.3	12.1	-8.1	i	C[C@@H]1CN([C@@H](C)CO)C(=O)c2cccc(NC(=O)Nc3ccc(C(F)(F)F)cc3)c2O[C@@H]1CN(C)CC1CCCCC1
24	-4.5	2.0	-4.7	-1.9	i	C[C@H]1CN([C@@H](C)CO)C(=O)c2cc(C3=CCCC3)cnc2O[C@H]1CN(C)Cc1ccc(C(=O)O)cc1
25	4.3	3.3	4.3	2.2	i	COc1ccc(NC(=O)N(C)C[C@H]2Oc3cc(C#CCC(C)C)ccc3S(=O)(=O)N([C@H](C)CO)C[C@@H]2C)cc1
26	-1.6	-0.3	1.7	-0.2	i	Cc1ccc(S(=O)(=O)N[C@@H]2CC[C@H](CC(=O)O)O[C@@H]2CO)cc1
27	1.2	-2.3	-1.7	-0.8	i	C[C@H]1CN([C@@H](C)CO)C(=O)c2cc(NS(=O)(=O)c3ccc(F)cc3)ccc2O[C@@H]1CN(C)S(=O)(=O)c1cccs1
28	-9.5	-8.6	-15.4	2.4	i	Cc1ccc(S(=O)(=O)N(C)C[C@@H]2Oc3c(NC(=O)C4CCCCC4)cccc3C(=O)N([C@@H](C)CO)C[C@@H]2C)cc1
29	1.5	-5.4	-9.3	1.2	i	COc1cccc(NC(=O)N[C@@H]2C=C[C@@H](CC(=O)Nc3ccc(-c4ccccc4)cc3)O[C@H]2CO)c1
30	-2.9	-1.3	10.5	-2.4	i	COc1ccc2c3c(n(C)c2c1)[C@H](CO)N(C(=O)c1cnccn1)CC31CCN(C(=O)c2cnccn2)CC1
31	-0.4	1.8	1.2	-1.5	i	C[C@@H]1CN([C@@H](C)CO)C(=O)c2cccc(NC(=O)c3ccncc3)c2O[C@@H]1CN(C)C(=O)Nc1ccccc1
32	-29.4	13.3	23.1	3.0	i	CCCCCNC(=O)C(CCc1ccccc1)n1c(=O)c(-c2cc3ccccc3[nH]2)nc2ccccc21 (configuration not stated)
33	-8.1	-8.4	-13.1	-4.0	i	CN1c2ccc(C#Cc3cccnc3)cc2[C@@H]2[C@@H](CCN2S(=O)(=O)c2ccccc2F)[C@H]1CO
34	-4.8	6.9	17.0	-1.1	i	C[C@H](CO)N1C[C@H](C)[C@H](CN(C)Cc2ccccc2)Oc2ncc(C#CC3(O)CCCC3)cc2C1=O
35	-0.3	5.4	6.5	1.1	i	COc1ccc(CCNC(=O)CSc2nc3c(sc(=S)n3-c3ccccc3)c(=O)[nH]2)cc1OC
36	-1.4	0.2	4.5	12.2	i	Cc1cc2nc(-c3ccc(F)cc3)c(Cc3ccccc3)n2c(C)c1Br
37	2.4	-1.6	-0.9	-0.3	i	C[C@@H]1CN([C@@H](C)CO)C(=O)Cc2cc(NC(=O)Nc3ccc4c(c3)OCO4)ccc2O[C@H]1CN(C)S(=O)(=O)c1ccc(F)cc1
38	6.7	-4.0	-17.2	3.0	i	COc1cccc(-c2cnc3c(c2)C(=O)N([C@H](C)CO)C[C@@H](C)[C@H](CN(C)Cc2ccc(F)cc2)O3)c1
39	-2.4	0.1	4.0	-0.3	i	C[C@H]1CCCCO[C@H](CN(C)Cc2ccc(C(=O)O)cc2)[C@@H](C)CN([C@@H](C)CO)C(=O)c2cc(NC(=O)NC3CCCCC3)ccc2O1
40	6.9	-28.6	-71.9	-18.4	i	CCc1c(-c2ccccc2F)ncn1Cc1cccc(-c2ccccc2)c1
41	-1.0	1.5	-2.6	-3.2	i	CO[C@@H]1CN(C)C(=O)c2cc(NC(=O)Nc3ccccc3F)ccc2OC[C@H](C)N(C)C[C@H]1C
42	-0.1	2.9	-9.9	1.4	i	Cc1noc(C)c1NC(=O)Nc1ccc2c(c1)C(=O)N([C@@H](C)CO)C[C@H](C)[C@H](CN(C)Cc1ccc(C(F)(F)F)cc1)O2
43	0.1	0.5	5.2	-1.7	i	CCCC#Cc1cnc2c(c1)C(=O)N([C@@H](C)CO)C[C@@H](C)[C@@H](CN(C)Cc1cccnc1)O2
44	7.8	-41.2	-75.2	-5.1	i	COc1ccc(C(c2nnnn2C2CCCC2)N2CCN(C/C=C/c3ccccc3)CC2)cc1 (configuration not stated)
45	-0.3	-0.9	-1.6	-0.2	i	CCOC(=O)C1=CCC(c2cccc(Cl)c2)N(S(=O)(=O)c2ccc(C)cc2)C1 (configuration not stated)
46	-0.9	-1.7	-0.1	-0.1	i	C[C@@H]1CN([C@@H](C)CO)C(=O)c2cc(NC(=O)Cc3ccccc3)ccc2O[C@H]1CN(C)C(=O)Nc1ccccc1
47	-1.5	1.2	-5.8	-1.2	i	Cc1ccc(S(=O)(=O)Nc2ccc3c(c2)C(=O)N([C@H](C)CO)C[C@H](C)[C@H](CN(C)C(=O)Nc2ccc(C(F)(F)F)cc2)O3)cc1
48	2.4	3.8	5.3	-1.9	i	Cc1ccc(S(=O)(=O)N[C@@H]2C=C[C@@H](CC(=O)NCc3ccncn3)O[C@H]2CO)cc1
49	0.6	0.3	17.4	-2.4	i	C=Cn1cc(CNC[C@H]2O[C@@H](n3cnc4c(=O)[nH]c(N)nc43)[C@H](O)[C@@H]2O)c(C)n1
50	1.3	2.0	4.3	1.3	i	C[C@@H]1CN([C@H](C)CO)C(=O)c2cc(NC(=O)Nc3ccc(C(F)(F)F)cc3)ccc2O[C@@H]1CN(C)C(=O)NC1CCCCC1
51	-3.0	17.6	18.7	3.3	i	CCCn1c(N)c(C(=O)CSc2nnc(-c3cccs3)n2C2CC2)c(=O)[nH]c1=O
52	-0.8	-0.7	2.6	-2.4	i	C[C@@H]1CN([C@H](C)CO)C(=O)Cc2cc(NC(=O)Nc3ccccc3)ccc2O[C@H]1CN(C)S(=O)(=O)c1cccs1
53	1.1	0.2	3.8	0.5	i	CC(C)(C)NC(=O)C1(C)CCC(=O)N1CC(F)(F)F (configuration not stated)
54	3.1	8.3	1.2	-1.0	i	Cc1cccc(-c2ccc([C@@H]3[C@H](CO)N4CCCCN(S(=O)(=O)c5cn(C)cn5)C[C@@H]34)cc2)c1
55	8.5	-9.6	-22.1	3.3	i	C[C@@H]1CN([C@H](C)CO)C(=O)c2cc(NC(=O)Nc3ccc(C(F)(F)F)cc3)ccc2O[C@@H](C)CCCCO[C@H]1CN(C)Cc1ccc2c(c1)OCO2
56	1.6	-0.4	-1.3	-1.6	i	C[C@@H]1CN([C@@H](C)CO)C(=O)c2cccc(NC(=O)C3CCOCC3)c2O[C@H]1CN(C)Cc1ccc(C(=O)Nc2ccccc2N)cc1
57	-1.5	6.3	2.7	2.0	i	CCCCC1Cc2[nH][nH]c(=O)c2C(c2ccc(F)cc2)O1 (configuration not stated)
58	1.3	-7.1	-11.0	3.3	i	C[C@H](CO)N1C[C@H](C)[C@H](CN(C)Cc2ccc(C(=O)Nc3ccccc3N)cc2)Oc2c(NC(=O)c3ccc(-c4nccs4)cc3)cccc2C1=O
59	-0.2	-0.4	-6.2	0.2	i	C[C@H](CO)N1C[C@H](C)[C@H](CN(C)CC2CCCCC2)Oc2ccc(NS(=O)(=O)c3ccc(Cl)cc3)cc2C1=O
60	1.3	6.2	8.8	-2.3	i	CCOc1ccc(C(=O)NC(C(=O)N2CCC2)C(C)C)cc1 (configuration not stated)

# Carrying on.
cpd	AF4-AF9 inh	rRNA inh HTS	rRNA inh HTS OD600	rRNA inh HTS RFP	FGF22 binding	SMILES
61	-4.3	-6.7	-8.9	-2.8	i	CC(O)(c1ccccc1)c1ccc2ccccc2n1 (configuration not stated)
62	14.9	-9.9	-11.8	-0.6	i	Cc1cc(/N=C/C=C2/N(C)c3ccccc3C2(C)C)n(CCC#N)n1
63	-0.8	-0.5	-4.1	3.2	i	CC(CCc1ccccn1)C(=O)C(C)CCc1ccccn1 (configuration not stated)
64	-12.8	2.4	8.2	-1.2	i	COCC(=O)N[C@H]1CC[C@@H](CC(=O)NCc2ccccc2OC)O[C@H]1CO
65	0.3	3.9	2.5	-1.8	i	COc1ccc(CN(C)C[C@H]2Oc3c(NS(=O)(=O)c4cn(C)cn4)cccc3C(=O)N([C@H](C)CO)C[C@@H]2C)cc1
